# Compound activity from PubChem BioAssay.
# UCH37 inh – inhibitors of human UCH37 deubiquitinase, primary screen, biochemical, Ub-AMC cleavage, fluorescence. Ubiquitin carboxyl-terminal hydrolase isozyme L5 (Homo sapiens), Q9Y5K5. purified proteasome/UCH37. inhibition, % (test concentration not listed). 0.33% of 330,000 active. AID 588478, 2011;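 active = mean of two replicates above 20%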;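 note: 0% = compound-free wells with enzyme and 100% = wells lacking proteasome; stock transfer was 100 nL into about 20 µL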
# Target sequence (Q9Y5K5 whole entry, looked up): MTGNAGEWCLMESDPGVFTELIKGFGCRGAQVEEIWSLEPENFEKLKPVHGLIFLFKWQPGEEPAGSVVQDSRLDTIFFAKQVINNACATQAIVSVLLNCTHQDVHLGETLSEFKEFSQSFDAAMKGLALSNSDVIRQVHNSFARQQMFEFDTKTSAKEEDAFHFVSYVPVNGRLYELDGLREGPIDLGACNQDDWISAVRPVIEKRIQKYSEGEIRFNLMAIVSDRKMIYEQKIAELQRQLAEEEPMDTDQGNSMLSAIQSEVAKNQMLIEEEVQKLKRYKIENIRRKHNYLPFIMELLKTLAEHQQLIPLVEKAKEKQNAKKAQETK
#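 Test system – human UCH37 enzyme supplied as purified proteasome complex · Incubation – 30 min preincubation with enzyme, 25 min cleavage at room temperature · Detection – AMC fluorescence from Ub-AMC cleavage, excitation 355 nm, emission 460 nm · Benchmarks – no-proteasome wells (full inhibition) and compound-free wells (no inhibition)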
# RanGTP-Impb inh – inhibitors of RanGTP-importin-beta interaction, primary screen, biochemical, FRET, CFP-Ran, YFP-importin-beta, homogeneous; cell-free CFP-Ran/YFP-importin-beta FRET ratio; inhibition, % (concentration not given with the values); AID 2216, 2009; 1.1% of 300,000 active; Ran GTPase (GTP-bound) - importin-beta complex;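 active = most replicates above 15%; inconclusive = exactly half above 15%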;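 note: 0% = DMSO wells and 100% = Ran loaded with GDP instead of GTP; wells of about 40 µL received 100 nL stock; the first replicate is given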
# FGF22 binding – binders of human FGF22 protein, primary screen, FGF22 synaptogenesis inhibitor project, biophysical, thermal shift, single point. recombinant FGF22 thermal shift, SYPRO orange fluorescence; percent of sucrose octasulfate shift, DMSO zero. calls only at 9.99 µM. 1.5% of 340,000 active. AID 651658, 2012;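 active = melting point raised past a set limit in the mean and every replicate; inconclusive = no clear call; three in four hits are not shown here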
# Target sequence (Q9HCT0 whole entry, looked up): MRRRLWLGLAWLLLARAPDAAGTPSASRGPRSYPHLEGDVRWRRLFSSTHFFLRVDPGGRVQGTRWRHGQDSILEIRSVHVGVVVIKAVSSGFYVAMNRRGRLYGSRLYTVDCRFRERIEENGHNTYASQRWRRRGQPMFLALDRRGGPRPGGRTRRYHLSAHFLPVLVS
# HNF4A DNA FP – change in binding of human HNF4A to DNA, primary screen, biochemical, fluorescence polarization, FITC-DNA | Hepatocyte nuclear factor 4-alpha (Homo sapiens), P41235 | 1 h | activity change, % at 10 µM | 0.3% of 360,000 active | AID 1224865, 2016; in the data active = activity change above about 30%, passing the limit was not always enough;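 note: controls were the assay level and a saturating level of protein; the project sought stronger binding though the title names inhibitors; some compounds called inactive have numbers as strong as hits; positive values seem to mean higher polarization but the record does not say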
# Ecoli growth – E. coli growth inhibition, primary screen, OD600; Escherichia coli growth, 23 h; active compounds read low; OD600 absorbance (no concentration beside the values); 0.21% of 330,000 active; AID 1053175, 2014;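 active = OD600 absorbance below the run mean of sample wells minus 3.6 SD, in any replicate, cut at about 0.56 in these data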;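 note: stock transfer was 300 nL into about 60 µL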
# Vif A3G – inhibitors of Vif binding to APOBEC3G peptide, primary screen, biochemical, TR-FRET, GST-Vif 1-94, biotin-A3G peptide, dose response retest (AID 1117319); Virion infectivity factor (Human immunodeficiency virus type 1 group M subtype B (isolate …; TR-FRET GST-Vif / biotin-A3G peptide binding; higher % means a stronger effect; test concentration not given here; strong numbers were not always called active; inhibition, %, or IC50 in µM where a hit was titrated; 0.57% of 260,000 active;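 active = above the screen mean plus three standard deviations and confirmed in dose response; inconclusive = results disagree or hit not tested in dose response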;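 note: Vif residues 1-94 fused to GST binding biotinylated APOBEC3G peptide 110-148; 0% = full assay without inhibitor and 100% = GST in place of GST-Vif; retest series ran down from 100 µM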
# AF4-AF9 inh – inhibitors of AF4 peptide binding to AF9, primary screen, biochemical, AlphaScreen, biotin-AF4 peptide, FLAG-AF9, single point. AID 651704, 2012. 0.47% of 350,000 active. Protein AF-9 (Homo sapiens), P42568. inhibition, % at 10 µM;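 active = every replicate reaching a set inhibition limit, whatever the replicate mean, cut at about 25% in these data; inconclusive = mean inhibition reaches that limit but some replicates miss it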;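 note: 0% = plate neutral control median and 100% = total signal loss; the record names both 10 and 1 µM as test concentration; the first replicate is given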
# Target sequence (P42568 whole entry, looked up): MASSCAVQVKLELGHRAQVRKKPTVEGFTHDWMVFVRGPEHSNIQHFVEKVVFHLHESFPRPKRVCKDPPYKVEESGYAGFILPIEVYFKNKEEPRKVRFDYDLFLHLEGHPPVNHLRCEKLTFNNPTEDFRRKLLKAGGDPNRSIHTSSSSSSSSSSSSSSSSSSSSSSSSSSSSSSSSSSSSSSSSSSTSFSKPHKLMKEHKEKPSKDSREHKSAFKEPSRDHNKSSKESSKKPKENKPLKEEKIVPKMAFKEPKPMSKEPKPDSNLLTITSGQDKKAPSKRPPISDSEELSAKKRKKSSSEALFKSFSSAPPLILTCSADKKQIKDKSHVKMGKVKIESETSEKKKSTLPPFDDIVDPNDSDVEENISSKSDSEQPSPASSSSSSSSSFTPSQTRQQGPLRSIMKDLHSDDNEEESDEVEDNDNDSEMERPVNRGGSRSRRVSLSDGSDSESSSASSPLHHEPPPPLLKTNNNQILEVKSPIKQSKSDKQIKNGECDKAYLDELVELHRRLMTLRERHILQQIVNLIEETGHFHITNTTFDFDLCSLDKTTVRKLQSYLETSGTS
# Numbers without * were called inactive; i = inactive; ? = inconclusive; . = not tested or not shown; + = active, no number; & = joins results of further samples. This is a subset; rates above refer to the full screens.
SMILES,UCH37 inh,RanGTP-Impb inh,FGF22 binding,HNF4A DNA FP,Ecoli growth,Vif A3G,AF4-AF9 inh
COc1ccc(C(C(=O)NC2CCCCC2)N(C(=O)CCl)c2ccc(C)cc2)cc1 (stereo not drawn),0.4,7.0,i,-1.7,0.674,?,-1.2
O=C(COC(=O)/C=C/c1ccc(OC(F)F)cc1)NCc1cccs1,3.0,?,i,-1.9,0.73,21.5%,1.6
COc1cccc(N2CCN(C(=O)C3CCN(C(=O)Nc4ccccc4)CC3)CC2)c1,.,.,i,-1.1,.,1.2%,-2.6
COC(=O)Cc1nnc(Nc2cccc(C)c2)c2ccccc12,3.8,-1.1,i,0.2,0.652,-7.8%,-0.7
CCC1(C(=O)c2ccccc2)C(c2cccc([N+](=O)[O-])c2)C1(C(=O)OC)C(=O)OC (stereo not drawn),.,?,i,-1.0,.,?,11.1
Cn1c(=O)[nH]c2nc[nH]c2c1=O,0.4,-0.1,i,2.2,0.639,.,-0.4
Cc1cc2cc(CNC(=S)NC3CCCCC3)ccc2n1C,5.6,-1.5,i,-0.9,0.709,-98.2%,6.5
O=C(CN1CCC(NC(=O)C2CCCCC2)CC1)NCc1ccco1,1.2,-3.2,i,2.0,0.699,23.9%,-10.8
CCCCn1c(N)c(N(CCOC)C(=O)C2CCN(C(=O)c3ccc(F)cc3)CC2)c(=O)[nH]c1=O,-1.4,1.0,i,-0.3,0.653,1.4%,-5.4
Cc1ccccc1CC(=O)NCc1cccnc1,1.1,-3.9,i,-0.9,0.651,.,-1.7
CCC(C(=O)NCC1CCCO1)N(Cc1ccc(F)cc1)C(=O)CNS(=O)(=O)c1ccccc1 (stereo not drawn),.,-2.7,i,-0.7,.,.,-2.8
CCOC(=O)c1c(NC(=O)c2ccc(Br)o2)sc(C)c1CC,-18.9,-4.1,.,2.1,0.737,3.4%,.
CCCc1cc(NCCOCCO)n2c(nc3ccccc32)c1C#N,.,.,i,1.6,.,-0.5%,-4.6
CCn1cc(C(=O)NCCC(=O)OC)c(=O)c2cc3c(cc21)OCO3,-29.8,-0.5,i,3.8,0.684,3.3%,0.8
CCOC(=O)C1=C(COC(=O)C2(C)CC2(Cl)Cl)NC(=O)NC1c1ccc(OC)cc1 (stereo not drawn),1.2,-2.7,i,-5.5,0.689,-1.7%,1.3
O=C(Nc1cc(S(=O)(=O)N2CCOCC2)ccc1N1CCOCC1)c1ccccc1[N+](=O)[O-],2.5,.,i,-0.9,0.63,.,1.6
Nc1c(S(=O)(=O)c2cc(Cl)ccc2Cl)c2nc3ccccc3nc2n1CCN1CCOCC1,-71.5,-5.5,.,0.6,0.738,-34.3%,.
CCN(CC)S(=O)(=O)c1cc(C(=O)O)c(Cl)cc1Cl,3.0,-1.1,.,-7.0,0.688,-3.7%,.
COc1cccc(C(=O)NCCS(=O)(=O)N2CCCC2)c1,2.0,1.1,i,-2.6,0.721,1.4%,-1.1
O=C(NC1CCCCC1)C(c1ccc(F)cc1)N(C(=O)c1csnn1)C1CCCC1 (stereo not drawn),5.8,0.1,i,-4.0,0.661,.,3.2
Cc1ccc(CN2CCC(n3nccc3NC(=O)CCCc3ccccc3)CC2)o1,0.0,0.8,i,3.4,0.633,.,2.6
CS(=O)(=O)c1ccccc1C(=O)Nc1cc2c(cc1C(=O)O)OCCCO2,.,1.4,i,-2.6,.,2.6%,-9.9
O=C(NCCCO)NC12CC3CC(CC(C3)C1)C2,-0.2,4.1,.,-0.7,0.673,3.8%,.
Cc1ccc(S(=O)(=O)N2CCN(C(=O)c3ccc4ccccc4n3)CC2)c(C)c1,-2.0,.,i,1.5,0.696,.,1.6
NC(=O)CSc1nc2ccccc2c(=O)n1CCc1ccccc1,1.9,0.8,i,-0.2,0.706,.,1.0

# Other records follow.
SMILES,UCH37 inh,RanGTP-Impb inh,FGF22 binding,HNF4A DNA FP,Ecoli growth,Vif A3G,AF4-AF9 inh
Cc1ccc(N(CC(=O)Nc2ccc(C)cn2)S(=O)(=O)c2c(C)nn(C)c2C)cc1,-0.5,3.4,.,1.8,0.697,3.6%,.
CC1CCc2sc3ncnc(N4CCN(CCO)CC4)c3c2C1 (stereo not drawn),1.5,-2.1,i,0.8,0.685,.,-7.0
O=C(OCc1cc(=O)n2ccsc2n1)C1(c2ccc(Cl)cc2)CC1,0.8,.,i,-2.6,0.662,15.1%,2.3
Cc1ccc(NC(=S)N(Cc2ccc(Cl)cc2)Cc2ccc(C(=O)O)cc2)cc1Cl,1.5,3.6,i,5.5,0.683,.,-2.9
CC(C)[C@H](NC(=O)Nc1ccc(Oc2ccccc2)cc1)C(=O)O,0.1,0.8,.,0.2,.,10.8%,.
Cc1ccc(NC(=S)N(Cc2cccc(Br)c2)CC2CCC(C(=O)O)CC2)cc1 (stereo not drawn),0.5,0.7,+,-6.2,0.647,-4.0%,-3.6
Cc1ccccc1N1C(=O)CC(N(O)c2ccccc2)C1=O (stereo not drawn),1.5,-10.2,.,6.8,0.695,-3.3%,.
C[C@H](C[C@H](O)[C@H]1OC1(C)C)C1=C2C[C@H](O)C3[C@@]4(C)CCC(=O)C(C)(C)C4CC[C@]3(C)[C@@]2(C)CC1 (stereo partly drawn),-0.2,.,i,2.6,.,.,1.3
CCOc1ccc(NC(=O)COc2nsnc2N2CCCCC2)cc1,3.4,1.1,.,0.8,0.673,4.6%,.
CN1CCN(c2nc3c(c(=O)[nH]c(=O)n3C)n2CCSc2nc3ccccc3s2)CC1,1.6,3.0,i,-2.8,0.782,?,-3.3
CCOc1cc(N2CCOCC2)c(OCC)cc1NC(=O)COC(=O)c1ccc([N+](=O)[O-])o1,5.7,.,i,-0.5,0.688,8.1%,?
Cn1c(=O)[nH]c(NC2CCCCC2)c(N=O)c1=O,2.6,3.2,.,-5.8,0.652,?,.
CCCNC(=S)Nc1ccc(Br)cc1,4.4,-0.5,.,2.0,0.695,-2.1%,.
CCCCCc1cc(=O)oc2c(C(CCN(CC)CC)c3ccc(OC)cc3)c(OC)cc(OC)c12 (stereo not drawn),-5.8,0.0,i,-0.1,0.678,.,-2.0
Cn1c(=O)n(C)c2cc(/C=C3/SC(=O)N(CC(=O)N4CCOCC4)C3=O)ccc21,4.9,-2.0,.,-1.8,.,1.8%,.
CCCC[C@@H](CNC)NC[C@H](NCCCCC1CCCCC1)C(C)C,0.7,5.0,i,1.7,.,.,.
Cc1ccc(C(=O)N/C(=C/c2ccco2)C(=O)O)cc1,4.1,2.4,.,-1.0,0.673,?,.
CC(=O)NCC(=O)N1CCCC(C(=O)c2ccc(Oc3ccccc3)cc2)C1 (stereo not drawn),1.8,-1.5,i,2.5,0.659,19.1%,-0.9
CCC1(C(=O)OC)CCc2c(cc(OC)c3ccccc23)C1=O (stereo not drawn),-128.9,3.7,i,2.1,0.676,.,6.9
COc1ccc(OCC(=O)N2CCN(C(=O)COc3ccccc3)CC2)cc1,3.2,4.3,.,1.1,0.724,3.5%,.
FC(F)(F)c1cccc(Oc2nc(-c3ccccc3)nnc2C(F)(F)F)c1,3.5,-0.7,.,-0.1,0.738,-1.0%,.
COc1ccc(-n2cc(-c3ccccc3)c3c(N4CCN(CCO)CC4)ncnc32)cc1,-2.5,4.9,i,0.2,0.715,7.4%&3.0%,12.3
C[C@@H]1CN(c2c(F)c(F)c3c(=O)c(C(=O)O)cn(C4CC4)c3c2F)C[C@H](C)N1,-61.2,0.2,i,-1.1,0.0665*,-0.1%,0.1
CC(C)Oc1ccc(C(=O)OCC(=O)NCCNC(=O)COC(=O)c2ccc(OC(C)C)cc2)cc1,5.8,-3.6,i,0.6,0.697,.,-3.1
CN(CCc1ccccc1)C1CCCN(S(=O)(=O)CC(F)(F)F)C1 (stereo not drawn),-1.0,1.6,i,2.1,0.708,.,-7.6

# A draw from above in order of length of the SMILES, largest number first:
SMILES,UCH37 inh,RanGTP-Impb inh,FGF22 binding,HNF4A DNA FP,Ecoli growth,Vif A3G,AF4-AF9 inh
C[C@@H]1CN(c2c(F)c(F)c3c(=O)c(C(=O)O)cn(C4CC4)c3c2F)C[C@H](C)N1,-61.2,0.2,i,-1.1,0.0665*,-0.1%,0.1
Cc1ccc(N(CC(=O)Nc2ccc(C)cn2)S(=O)(=O)c2c(C)nn(C)c2C)cc1,-0.5,3.4,.,1.8,0.697,3.6%,.
CCOc1ccc(NC(=O)COc2nsnc2N2CCCCC2)cc1,3.4,1.1,.,0.8,0.673,4.6%,.

# Further entries.
SMILES,UCH37 inh,RanGTP-Impb inh,FGF22 binding,HNF4A DNA FP,Ecoli growth,Vif A3G,AF4-AF9 inh
CN(C)CCCNc1ccc(-c2nn(C)c(=O)c3ccccc23)cc1[N+](=O)[O-],4.3,?,i,-0.2,0.705,-0.8%,3.3
CCOc1ccc(NC(=S)N(CCc2c(C)[nH]c3ccccc23)Cc2cccnc2)cc1,8.7,5.6,i,4.8,0.711,30.5%,0.9
COc1ccc(CN(C)CC(=O)Nc2ccc(N3CCOCC3)cc2)cc1OC,3.1,3.1,i,0.9,0.68,.,-8.8
Cc1ccc(S(=O)(=O)N2CCOCC2)cc1C(=O)N1CCN(S(=O)(=O)c2ccccc2F)CC1,3.3,.,i,-2.6,0.642,.,-1.6
CCOC(=O)c1c(NC(=O)Cn2c(=O)oc3ccccc32)oc(C)c1C(C)=O,4.4,-0.3,.,0.1,0.703,7.8%,.
CCCCn1c(N)c(N(CC(C)C)C(=O)c2cc3c(s2)CCCCC3)c(=O)[nH]c1=O,-2.6,-2.0,i,-1.1,0.689,-8.7%,1.0
O=C(NC1CC(=O)N(c2ccccc2)C1)N1CCN(C(=O)c2ccco2)CC1 (stereo not drawn),6.0,1.5,i,-8.0,0.685,5.9%,-1.2
Oc1ccc2oc3c(c2c1/C=N/n1cnnc1)CCCC3,.,-2.8,.,1.5,.,6.0%,.
CC(C)C(=O)Nc1ccc(N2CCN(c3ccc(F)cc3)CC2)cc1,1.7,1.8,i,-1.8,0.675,-4.0%,-0.4
O=C(CCc1nnc(C2CCCCC2)o1)N1CCN(Cc2ccccc2)CC1,2.4,6.4,i,-3.3,0.667,-2.3%,-1.1
COc1ccccc1Nc1nc(N)nc(CSc2nc(C)cc(C)n2)n1,0.9,5.5,.,25.6,0.691,17.8%,.
CCCCC(=O)N(C)c1c(CC)nc2c(OCC(=O)c3ccc(F)cc3)cccn12,.,.,i,4.6,.,.,1.3
CCOc1ccc(N2CC(C(=O)NCc3ccccn3)CC2=O)cc1 (stereo not drawn),2.3,-1.9,i,2.4,0.658,3.0%,0.2
Cc1cc(C(C)(C)C)oc1C(=O)OCC(=O)NC1CCCCC1,-1.1,-0.9,i,0.5,0.651,8.3%,-5.9
COc1ccc(NC(=O)c2sc(SCc3ccccc3)nc2N)cc1,1.1,-3.6,.,3.5,0.672,6.3%,.
Clc1cccc(OCCn2cncn2)c1Cl,-0.1,.,.,-1.7,0.76,-1.6%,.
O=C(O)c1[nH]c(-c2ccccc2)c2c1C(=O)N(C1CC1)C2=O,.,.,i,-1.4,.,.,-4.7
CCC1CCCCN1C(=O)CSc1n[nH]c(N)n1 (stereo not drawn),2.5,.,i,-5.8,0.719,-4.2%,-2.2
